Assay outcomes as filed in PubChem.
Vaccinia stage: blocks a specific stage of Vaccinia orthopoxvirus infection | Vaccinia-infected cells, mCherry/Venus stage reporter fluorescence; stronger effect = lower value; some inactives read as strong as hits | hit rate 0.01% among 89,000 | activity change (mCherry), % (no concentration beside the values) | AID 1053133;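 active = mCherry past -33% and 40 or more points under the early reporter, replicates agreeing; inconclusive = past -33% without that gap or agreement; tested in A549 cells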;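 also: scaled between vehicle wells and reference inhibitor wells; 23 nL library stock went into each well; one replicate is shown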
Vaccinia stage Venus: also measured in Vaccinia stage; calls as there; activity change (Venus), %; measured here: Venus reporter, other viral stage;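 negative = less Venus signal; first of two replicates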
Starred values were filed as active, the others as inactive.

What do the screens show for `CCCNC(=O)N1C[C@H](O)COC[C@H]2O[C@@H](CC(=O)N3CCN(C)CC3)CC[C@@H]21`?
Vaccinia stage: 11.5; Vaccinia stage Venus: 11.4

Results for C[C@H]1CN([C@@H](C)CO)S(=O)(=O)c2ccc(-c3cccc(C(=O)N(C)C)c3)cc2O[C@H]1CN(C)C(=O)Cc1ccccn1 ?
Vaccinia stage: 5.3; Vaccinia stage Venus: 0.6

What do the screens show for `CCC(=O)N1C[C@H](C)[C@@H](OC)CN(C)C(=O)c2cc(NS(C)(=O)=O)ccc2OC[C@@H]1C`?
Vaccinia stage: -8.4; Vaccinia stage Venus: -7.5

How did C[C@@H]1CCCCO[C@@H](CN(C)S(=O)(=O)c2cn(C)cn2)[C@@H](C)CN([C@H](C)CO)C(=O)c2cc(NS(=O)(=O)c3ccccc3)ccc2O1 do in these assays?
Vaccinia stage: 14.5; Vaccinia stage Venus: 13.1

How did C[C@@H]1CN([C@H](C)CO)C(=O)Cc2cc(NC(=O)CCC(F)(F)F)ccc2O[C@@H]1CN(C)C(=O)Nc1ccc(F)cc1 do in these assays?
Vaccinia stage: 22.2; Vaccinia stage Venus: 17.0

Results for CN1C(=O)c2cc(NC(=O)Cc3cccs3)ccc2OC[C@@H]2O[C@H](CC(=O)O)CC[C@H]21 ?
Vaccinia stage: 12.5; Vaccinia stage Venus: 6.0

How did Cc1ccc(S(=O)(=O)N2C[C@H](O)COC[C@H]3O[C@@H](CC(=O)NCc4ccc(Cl)c(Cl)c4)CC[C@@H]32)cc1 do in these assays?
Vaccinia stage: inconclusive

How did COc1cccc(-c2ccc([C@H]3[C@H]4CN(C(=O)C5CCOCC5)CC(=O)N4[C@H]3CO)cc2)c1 do in these assays?
Vaccinia stage: 14.3; Vaccinia stage Venus: 11.1

Results for C[C@H](CO)N1C[C@H](C)[C@H](CN(C)S(=O)(=O)c2cn(C)cn2)Oc2c(NC(=O)Nc3ccc(F)cc3)cccc2C1=O ?
Vaccinia stage: 19.5; Vaccinia stage Venus: -1.6

Results for CO[C@H]1CN(C)C(=O)c2ccc(NC(=O)C3CC3)cc2OC[C@@H](C)N(Cc2nccs2)C[C@H]1C ?
Vaccinia stage: 2.3; Vaccinia stage Venus: -1.4

How did COCC#Cc1cnc2c(c1)C(=O)N([C@H](C)CO)C[C@@H](C)[C@@H](CN(C)C(=O)Nc1cccc(F)c1)O2 do in these assays?
Vaccinia stage: 20.4; Vaccinia stage Venus: 14.8

How did CCCC#Cc1cnc2c(c1)C(=O)N([C@H](C)CO)C[C@@H](C)[C@@H](CN(C)C(=O)Nc1ccccc1OC)O2 do in these assays?
Vaccinia stage: -2.1; Vaccinia stage Venus: -1.1

What do the screens show for `COCCNC(=O)C[C@@H]1CC[C@H]2[C@@H](COC[C@@H](O)CN2C(=O)Nc2ccccc2OC)O1`?
Vaccinia stage: 9.0; Vaccinia stage Venus: 9.8

What do the screens show for `CC=Cc1ccc2n(c1=O)C[C@@H]1[C@@H](CO)[C@H](C(=O)NCC3CCCCC3)[C@H]2N1C(C)=O` (mixture of isomers)?
Vaccinia stage: 1.5; Vaccinia stage Venus: 6.7

What do the screens show for `CN(C)C(=O)[C@@H]1[C@@H](CO)[C@@H]2Cn3c(ccc(-c4cccc(F)c4)c3=O)[C@H]1N2CCc1ccccc1`?
Vaccinia stage: -2.7; Vaccinia stage Venus: -2.0

Results for C[C@@H]1CN([C@H](C)CO)C(=O)c2cc(C#CC3(O)CCCC3)cnc2O[C@H]1CN(C)C(=O)C1CCC1 ?
Vaccinia stage: 31.3; Vaccinia stage Venus: 18.1

What do the screens show for `C[C@@H]1CN([C@H](C)CO)C(=O)Cc2cc(NS(=O)(=O)c3ccccc3)ccc2O[C@@H]1CN(C)S(=O)(=O)c1cccs1`?
Vaccinia stage: 37.2; Vaccinia stage Venus: 17.9

Results for COC(=O)[C@@H]1[C@@H](CO)[C@@H]2Cn3c(cccc3=O)[C@H]1N2CCc1ccccc1 ?
Vaccinia stage: 2.5; Vaccinia stage Venus: 10.3

How did COC(=O)C[C@H]1CC[C@@H](NC(=O)Nc2ccc(C(F)(F)F)cc2)[C@@H](CO)O1 do in these assays?
Vaccinia stage: 1.1; Vaccinia stage Venus: 10.1

What do the screens show for `Cc1noc(C)c1S(=O)(=O)N(C)C[C@@H]1Oc2c(NS(=O)(=O)c3ccccc3)cccc2C(=O)N([C@H](C)CO)C[C@@H]1C`?
Vaccinia stage: 6.8; Vaccinia stage Venus: -0.2

What do the screens show for `C[C@H](CO)N1C[C@H](C)[C@H](CN(C)S(C)(=O)=O)Oc2ccc(NC(=O)Cc3ccccc3)cc2CC1=O`?
Vaccinia stage: 3.8; Vaccinia stage Venus: 1.5

Results for CO[C@H]1CN(C)C(=O)c2cc(NS(=O)(=O)c3ccc(C)cc3)ccc2OC[C@@H](C)N(Cc2nccs2)C[C@@H]1C ?
Vaccinia stage: 10.7; Vaccinia stage Venus: 6.1

Results for O=C(C[C@@H]1C[C@@H]2c3cc(NC(=O)Nc4ccccc4F)ccc3O[C@@H]2[C@H](CO)O1)NCC(F)(F)F ?
Vaccinia stage: 9.0; Vaccinia stage Venus: 1.2

What do the screens show for `COc1cccc(S(=O)(=O)Nc2ccc3c(c2)[C@H]2C[C@@H](CC(=O)NCc4cccc(F)c4)O[C@@H](CO)[C@H]2O3)c1`?
Vaccinia stage: -10.1; Vaccinia stage Venus: -4.7

What do the screens show for `CCNC(=O)C[C@@H]1CC[C@@H]2[C@H](COC[C@@H](O)CN2Cc2ccccc2F)O1`?
Vaccinia stage: -0.6; Vaccinia stage Venus: -3.9

What do the screens show for `C[C@@H]1CN([C@@H](C)CO)C(=O)c2cc(NS(=O)(=O)c3ccccc3)ccc2O[C@@H]1CN(C)C(=O)NC1CCCCC1`?
Vaccinia stage: 13.0; Vaccinia stage Venus: -0.1

How did N#C[C@@H]1[C@H](c2ccccc2)[C@H](CO)N1C(=O)Cc1ccccn1 do in these assays?
Vaccinia stage: 11.6; Vaccinia stage Venus: 11.9

How did C[C@@H]1CN([C@H](C)CO)C(=O)c2cc(NC(=O)Nc3cccc4ccccc34)ccc2O[C@@H](C)CCCCO[C@H]1CN(C)S(C)(=O)=O do in these assays?
Vaccinia stage: 16.0; Vaccinia stage Venus: 13.6

What do the screens show for `O=C(C[C@@H]1CC[C@@H](NC(=O)Nc2ccc(F)cc2)[C@H](CO)O1)NCCN1CCCC1`?
Vaccinia stage: 9.5; Vaccinia stage Venus: 10.9

What do the screens show for `CS(=O)(=O)N1CCCCN2[C@@H](CO)[C@H](c3ccc(C4=CCCC4)cc3)[C@@H]2C1`?
Vaccinia stage: 12.5; Vaccinia stage Venus: 6.1

What do the screens show for `C[C@H](NC(=O)C[C@@H]1CC[C@H](NC(=O)Nc2ccc3c(c2)OCO3)[C@@H](CO)O1)c1ccccc1`?
Vaccinia stage: -1.3; Vaccinia stage Venus: 3.0

Results for C[C@@H]1CN([C@@H](C)CO)C(=O)c2cc(C#CCC3CCCC3)cnc2O[C@H]1CN(C)CC1CCOCC1 ?
Vaccinia stage: inconclusive

How did C[C@@H]1CN([C@@H](C)CO)C(=O)Cc2cc(NC(=O)Cc3ccccc3)ccc2O[C@H]1CN(C)S(=O)(=O)c1cccs1 do in these assays?
Vaccinia stage: -19.3; Vaccinia stage Venus: -14.2

How did CCNC(=O)C[C@H]1CC[C@H]2[C@@H](COc3ccc(NC(=O)c4ccc(F)cc4)cc3C(=O)N2C)O1 do in these assays?
Vaccinia stage: -1.4; Vaccinia stage Venus: -4.2

Results for CN1c2ccc(-c3cccc(C#N)c3)cc2[C@@H]2[C@@H](CCN2S(=O)(=O)c2ccc(F)cc2)[C@@H]1CO ?
Vaccinia stage: -27.3; Vaccinia stage Venus: -21.6

Results for C[C@@H](O)C#Cc1ccc2c(c1)O[C@@H](CN(C)Cc1ccc(-c3ccccc3)cc1)[C@@H](C)CN([C@@H](C)CO)S2(=O)=O ?
Vaccinia stage: -91.8*; Vaccinia stage Venus: -33.8*

What do the screens show for `CC(C)NC(=O)NCC[C@H]1CC[C@@H](NC(=O)c2ccc(F)cc2)[C@@H](CO)O1`?
Vaccinia stage: -7.0; Vaccinia stage Venus: -4.0

How did Cc1noc(C)c1S(=O)(=O)Nc1ccc2c(c1)C(=O)N([C@@H](C)CO)C[C@H](C)[C@H](CN(C)Cc1ccncc1)OCCCC[C@@H](C)O2 do in these assays?
Vaccinia stage: -1.3; Vaccinia stage Venus: -6.9

How did CCCNC(=O)[C@H]1[C@H](CO)[C@H]2Cn3c(ccc(-c4cccc(C(=O)N(C)C)c4)c3=O)[C@@H]1N2 do in these assays?
Vaccinia stage: 2.3; Vaccinia stage Venus: 0.8

What do the screens show for `COc1ccc(NC(=O)N(C)C[C@@H]2OCCCC[C@@H](C)Oc3ccc(NC(=O)Cc4ccccc4)cc3C(=O)N([C@@H](C)CO)C[C@H]2C)cc1`?
Vaccinia stage: -14.5; Vaccinia stage Venus: -7.1

What do the screens show for `C[C@@H]1CN([C@@H](C)CO)C(=O)c2c(c3ccccc3n2C)-c2ccccc2CO[C@@H]1CN(C)Cc1cccc(C(F)(F)F)c1`?
Vaccinia stage: inconclusive

What do the screens show for `CCCNC(=O)C[C@H]1C[C@@H]2c3cc(NC(=O)COC)ccc3O[C@@H]2[C@H](CO)O1`?
Vaccinia stage: 11.2; Vaccinia stage Venus: 7.8

Results for O=C(C[C@H]1C[C@@H]2c3cc(NC(=O)Nc4ccccc4F)ccc3O[C@@H]2[C@@H](CO)O1)NC1CCCC1 ?
Vaccinia stage: -1.4; Vaccinia stage Venus: -2.5

Results for O=C(N[C@@H]1C=C[C@@H](CC(=O)N2CCCCC2)O[C@H]1CO)c1ccccn1 ?
Vaccinia stage: -5.5; Vaccinia stage Venus: 11.5

What do the screens show for `C[C@@H]1CN([C@@H](C)CO)C(=O)c2cc(NS(=O)(=O)c3cccs3)ccc2O[C@@H](C)CCCCO[C@@H]1CN(C)Cc1ccc(C(F)(F)F)cc1`?
Vaccinia stage: inconclusive

5 structures already listed, sorted by molar mass, highest first:
What do the screens show for `C[C@@H]1CN([C@@H](C)CO)C(=O)c2cc(NS(=O)(=O)c3cccs3)ccc2O[C@@H](C)CCCCO[C@@H]1CN(C)Cc1ccc(C(F)(F)F)cc1`?
Vaccinia stage: inconclusive

How did Cc1noc(C)c1S(=O)(=O)Nc1ccc2c(c1)C(=O)N([C@@H](C)CO)C[C@H](C)[C@H](CN(C)Cc1ccncc1)OCCCC[C@@H](C)O2 do in these assays?
Vaccinia stage: -1.3; Vaccinia stage Venus: -6.9

What do the screens show for `C[C@@H]1CN([C@@H](C)CO)C(=O)c2c(c3ccccc3n2C)-c2ccccc2CO[C@@H]1CN(C)Cc1cccc(C(F)(F)F)c1`?
Vaccinia stage: inconclusive

Results for C[C@@H](O)C#Cc1ccc2c(c1)O[C@@H](CN(C)Cc1ccc(-c3ccccc3)cc1)[C@@H](C)CN([C@@H](C)CO)S2(=O)=O ?
Vaccinia stage: -91.8*; Vaccinia stage Venus: -33.8*

How did CCCNC(=O)[C@H]1[C@H](CO)[C@H]2Cn3c(ccc(-c4cccc(C(=O)N(C)C)c4)c3=O)[C@@H]1N2 do in these assays?
Vaccinia stage: 2.3; Vaccinia stage Venus: 0.8

(next part)
Results for O=C(Nc1ccc2c(c1)OCO2)N[C@@H]1CC[C@H](CCNC(=O)C2CCCCC2)O[C@@H]1CO ?
Vaccinia stage: -12.8; Vaccinia stage Venus: -9.3

Results for Cc1noc(C)c1NC(=O)Nc1ccc2c(c1)C(=O)N([C@H](C)CO)C[C@@H](C)[C@@H](CN(C)C(=O)Nc1ccc(C(F)(F)F)cc1)OCCCC[C@@H](C)O2 ?
Vaccinia stage: -3.8; Vaccinia stage Venus: 0.1

What do the screens show for `C[C@@H]1CN([C@H](C)CO)C(=O)c2cc(C#C[C@@H](C)O)cnc2O[C@H]1CN(C)C(=O)CC1CC1`?
Vaccinia stage: -1.0; Vaccinia stage Venus: -1.7

Results for COc1ccc(S(=O)(=O)Nc2ccc3c(c2)CC(=O)N([C@@H](C)CO)C[C@H](C)[C@@H](CN(C)S(C)(=O)=O)O3)cc1 ?
Vaccinia stage: 2.7; Vaccinia stage Venus: -2.0

How did O=C(Nc1ccc(F)cc1)N[C@H]1CC[C@H](CC(=O)N2CCOCC2)O[C@@H]1CO do in these assays?
Vaccinia stage: 0.8; Vaccinia stage Venus: -5.1

How did N#C[C@H]1[C@H](c2ccc(C3=CCCC3)cc2)[C@H](CO)N1C(=O)C1CCC1 do in these assays?
Vaccinia stage: 13.3; Vaccinia stage Venus: 13.8

How did O=C(NCC[C@@H]1CC[C@@H](NC(=O)Nc2cc(F)ccc2F)[C@H](CO)O1)Nc1ccc(F)cc1 do in these assays?
Vaccinia stage: 21.1; Vaccinia stage Venus: 17.2

How did C[C@@H]1CN([C@H](C)CO)C(=O)c2cccc(NC(=O)c3cnccn3)c2O[C@H]1CN(C)Cc1ccc(C(=O)O)cc1 do in these assays?
Vaccinia stage: 9.9; Vaccinia stage Venus: 11.3

Results for C[C@H]1CN([C@@H](C)CO)C(=O)Cc2cc(NC(=O)CCCCCC(=O)Nc3ccccc3N)ccc2O[C@H]1CN(C)C(=O)Nc1ccc(F)cc1 ?
Vaccinia stage: 12.3; Vaccinia stage Venus: 13.2

How did O=C(N[C@H]1C=C[C@@H](CC(=O)N2CCN(c3ccccc3)CC2)O[C@H]1CO)c1ccccc1 do in these assays?
Vaccinia stage: 12.3; Vaccinia stage Venus: 9.2

What do the screens show for `C[C@@H]1CN([C@H](C)CO)C(=O)c2cc(C#CCN(C)C)cnc2O[C@H]1CN(C)C(=O)Cc1cccnc1`?
Vaccinia stage: 13.2; Vaccinia stage Venus: 6.0

What do the screens show for `O=C(Nc1ccc(F)cc1)N[C@@H]1CC[C@H](CC(=O)N2CCCCC2)O[C@@H]1CO`?
Vaccinia stage: 6.6; Vaccinia stage Venus: 2.1

How did O=C1CN(S(=O)(=O)c2cccc(F)c2)C[C@H]2[C@@H](c3ccc(-c4ccc(F)cc4)cc3)[C@H](CO)N12 do in these assays?
Vaccinia stage: inconclusive

What do the screens show for `CN(C)CC(=O)N[C@@H]1CC[C@@H](CCNC(=O)C2CC2)O[C@H]1CO`?
Vaccinia stage: 3.1; Vaccinia stage Venus: 2.7

The list is partial, so the mix of outcomes need not match the whole.
